TAR Tat displ – TAR RNA-Tat peptide displacers, HIV-1, primary screen, biochemical, FRET, FAM/TAMRA-labeled Tat. AID 1259389, 2018. z-score (test concentration not listed). HIV-1 TAR RNA, Tat peptide displacement FRET; stronger effect = higher value. hit rate 0.6% among 100,000;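 further: score is relative to mean and SD of negative controls; some compounds called inactive have numbers as strong as hits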
CDC25B-CDK2 inh – primary biochemical HTRF screen for blockers of M-phase inducer phosphatase 2 binding to CDK2/cyclin A; hit rate 0.72% among 94,000; HTRF CDC25B-CDK2/CyclinA binding, anti-His/anti-Flag; stronger effect = higher value; z-score (no concentration beside the values);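 further: score is relative to mean and SD of negative controls; strong numbers were not always called active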
An asterisk follows results filed as active; · = no result given.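 How the source made its calls: active means z-score from 3 up in half or more of its runs; inactive means the rest.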

SMILES	TAR Tat displ	CDC25B-CDK2 inh
COc1cc(OC)cc(C(=O)O/N=C2/CCCc3cc(OC)c(C)cc32)c1	·	-2.6
Cc1nc2nc(NC(=O)c3ccc(C(C)(C)C)cc3)nn2c(C)c1Cl	1.6	-1.9
CN(CC(=O)N1CCOCC1)S(=O)(=O)c1ccc2[nH]c3c(c2c1)CCCC3	1.5	·
O=C(NC(=S)Nc1ccc(-c2nc3ccccc3o2)c(O)c1)c1ccccc1Cl	·	-9.4
Cc1oc2ncnc(N3CCCCC3)c2c1C(=O)N(Cc1ccco1)C1CCCC1	1.3	·
C=CCc1cccc(CNc2cnc3ccccc3c2)c1O	-0.39	-0.39
O=C(O)CCC(=O)n1ncc2ccccc21	0.51	2.9
N#C/C(=C\c1ccco1)C(=O)c1cccc(C(F)(F)F)c1	·	4.3
CCOc1ccc(C2CC(=O)N3CN(C)CSC3=C2C#N)cc1OC (stereo not drawn)	-0.1	3.6*
Cc1ccc(S(=O)(=O)N2CCN(Cc3cc(-c4ccccc4)ccc3O)CC2)cc1	·	1.2
CCOc1cc(C2c3c(oc4ccccc4c3=O)C(=O)N2c2nc(C)c(C(=O)OC)s2)ccc1O (stereo not drawn)	0.23	-1.7
O=C(O)C(Cc1ccccc1)N1C(=O)c2cccc3cccc(c23)C1=O (stereo not drawn)	0.06	0.91
Cc1nn(C(C)C(=O)N2CCOCC2)c(=O)c2c1sc1ccccc12 (stereo not drawn)	1.2	1.3
O=C(C1CCN(c2nccnc2Oc2ccccc2)CC1)N1CCOCC1	2.3	·
CC1CCC2(CC1)SCC(=O)N2c1ccc(Cl)cc1 (stereo not drawn)	·	-1.7
Fc1ccccc1-c1noc(N2CCN(c3ncccn3)CC2)n1	0.65	·
Cc1ccc2[nH]cc(S(=O)(=O)c3ccc(C(C)C)cc3)c(=O)c2c1	1.4	-0.07
COc1ccc(-c2ncnn2-c2sc3c(c2C#N)CCCC3)cc1OC	-1.6	-1.3
O=C(Nc1ccc(Br)cc1)C1Sc2nnc(-c3ccccc3)n2NC1c1ccccc1 (stereo not drawn)	1.3	-0.52
Cc1cc(-c2ccc(S(=O)(=O)NCc3ccc4c(c3)OCO4)s2)on1	0.76	·
Cc1ccc(Nc2c(-c3ccccc3O)nc3cnccn23)cc1	·	0.88
Cc1nc(-c2ccccc2)sc1C(=O)Oc1ccccc1N1CCOCC1	·	-0.92
COc1ccccc1NC(=O)COc1cc(CSc2ncccn2)ncc1OC	0.51	·
COc1ccc(NC(=O)CSc2nc3c(cnn3-c3ccc(F)cc3)c(=O)[nH]2)c(OC)c1	·	0.32
Nc1cccc(CCc2nc3ccccc3[nH]2)c1	1.2	0.53

The list continues.
SMILES	TAR Tat displ	CDC25B-CDK2 inh
S=c1[nH]nc(Cc2ccccc2)n1Cc1ccccc1	·	-2.2
CCC(=O)OCc1cc(=O)n2c3c(sc2n1)CCCC3	0.33	·
COc1ccc(NC(=O)N2CCC3(CC2)Nc2cc(F)ccc2-n2cccc23)cc1OC	0.24	·
C/C1=C/CC(C)(C)/C=C/C/C(C)=C/CC1	1.1	·
COc1ccc(Nc2nc3c(S(=O)(=O)c4ccccc4)nnn3c3ccsc23)cc1OC	-0.23	·
CCOC(=O)c1c(C)oc2nc(C)nc(Nc3ccccc3OCC)c12	0.47	·
CCCN1CNC(=S)N(CCc2ccccc2)C1	·	-1.7
COc1cccc(-c2nnc(SCc3ccc(C)cc3)o2)c1	0.5	-0.82
COC(=O)c1cc(S(=O)(=O)NC2CCC(C)CC2)cn1C (stereo not drawn)	1.4	-1.5
O=C1CC(c2c(F)cccc2Cl)C2=C(CC(c3ccc(F)cc3)CC2=O)N1 (stereo not drawn)	1.4	-1.1
O=C(COC(=O)c1cnccn1)c1ccc(Cl)cc1	0.76	-0.84
O=c1c(O)cc([C@H]2Oc3cc(O)cc(O)c3C[C@H]2O)cc2c([C@H]3Oc4cc(O)cc(O)c4C[C@H]3O)cc(O)c(O)c12	18*	·
Cc1ccc(C(=O)N2NC(c3ccc(F)cc3)C3C(=O)N(c4ccc(C)cc4)C(=O)C32)cc1 (stereo not drawn)	·	0.12
CCCc1nnc(NC(=O)c2cc(=O)c3cc(C)ccc3o2)s1	-1.5	-1.7
COc1cccc(-c2[nH]nc3nc(-c4ccc(Br)cc4)cc(C(=O)O)c23)c1	-0.43	-0.05
O=C(/C=C/c1ccccc1)NC(=S)NNC(=O)Cn1nnc(N2CCCCC2)n1	·	7
COCCCN(C(=O)Cn1c(=O)oc2ccccc21)C(C)c1ccccn1 (stereo not drawn)	0.73	·
N#CC1=C(N)OC2=C(C(=O)CCC2)C1c1ccc(F)c(Br)c1 (stereo not drawn)	·	-0.41
c1ccc(CSc2nnc(-c3ccncc3)o2)cc1	·	-2.2
CCCCNC(=O)Cn1ncc2ccsc2c1=O	0.33	-1.8
COC(=O)c1c(SCc2ccc(F)cc2)[nH]c2ccccc2c1=O	0.89	·
COc1ccc(NC(=O)Nc2nc3ccc(OC)cc3s2)c(OC)c1	1.9	-0.99
O=C(Cn1c(=O)sc2ccccc21)Nc1cccc(Cl)c1	1.3	-1.2
O=C(C1CC(=O)N(C2CCCC2)C1)N1CCN(c2ccc(-c3noc(C4CC4)n3)cc2)CC1 (stereo not drawn)	0.68	·
CCOCCCNc1nc(-c2nnc(-c3ccccc3)o2)nc2ccccc12	-1.1	·

(cont.)
SMILES	TAR Tat displ	CDC25B-CDK2 inh
O=c1c2cnn(-c3ccccc3)c2cnn1-c1ccccc1	·	-2.4
CC1CC(=O)N(c2ccc(OC(F)(F)F)cc2)C1=O (stereo not drawn)	·	-1.9
CC1CC(C)CN(S(=O)(=O)c2ccc(-c3nc4ccccc4s3)cc2)C1 (stereo not drawn)	-0.1	-1
CC(C)c1nnc2c(=O)[nH]c3ccccc3n12	-1.9	-0.01
COc1ccc(C2C(C(=O)c3cccs3)=C(O)C(=O)N2c2nncs2)cc1 (stereo not drawn)	-1.7	0.27
Cn1c2c(c(=O)n(C)c1=O)C(CC(=O)Nc1ccc(F)cc1)C(=O)N2 (stereo not drawn)	-0.72	-1.7
CSc1nsc(SC)c1NC(=O)OCc1ccccc1	0.79	-0.08
CCC1c2ccc(C)n2CCN1C(=O)Nc1ccc(F)cc1 (stereo not drawn)	-5.5	1.4
CCOC(=O)CSc1nc(-c2ccccc2)cn1-c1ccccc1	·	-0.85
O=C(/C=C/c1ccco1)Nc1ccc(C(=O)O)cc1NC(=O)/C=C/c1ccco1	·	17*
Clc1ccc(-c2noc3ncnc(N4CCC(N5CCCCC5)CC4)c23)cc1	1.1	-0.76
CNC(=O)c1c(NC(=O)c2ccc(C)cc2)sc2c1CCC2	-2.2	·
O=c1cc(-c2ccc(O)c(O)c2)oc2cc(O)c([C@@H]3O[C@H](CO)[C@@H](O)[C@H](O)[C@H]3O)c(O)c12	26*	·
Cc1nc2nc(C)c(CCC(=O)NCCCOC(C)C)c(C)n2n1	-0.87	-0.86
Cc1ccc(C2Nn3c(C)nnc3SC2C(=O)Nc2ccc(C)c(C)c2)cc1 (stereo not drawn)	-0.14	-0.92
N=C1C(c2nc3ccccc3s2)=C(O)CN1c1cccc2ccccc12	1.3	-1.1
S=C1NCN(Cc2ccccc2)CN1CCc1ccccc1	·	-1.1
CC(C)CCN1Cc2ccccc2C1	-0.7	-0.19
Cc1nc2c(c(C)nn2C(C)(C)C)c(C)c1CCC(=O)NCc1ccco1	1.9	0.41
Brc1ccc(OCc2nc(-c3ccncc3)no2)cc1	-0.24	-0.09
CCOC(=O)c1sc2ncnc(OCC(=O)OC)c2c1C	1.3	·
O=C(NCC(c1cccs1)S(=O)(=O)c1cccs1)c1cccs1 (stereo not drawn)	1.9	·
Cc1nc(CC(=O)Nc2ccc(N(C)C)cc2)cs1	2.5	-0.78
C=C(C)CSc1nnc2c(n1)[nH]c1ccccc12	1.1	-0.16
CCOC(=O)c1oc2ccc3c(c2c1C)C(=O)CC(C)(C)O3	1.9	-1

Arranged by number of heavy atoms (descending): part of the list above.
SMILES	TAR Tat displ	CDC25B-CDK2 inh
Clc1ccc(-c2noc3ncnc(N4CCC(N5CCCCC5)CC4)c23)cc1	1.1	-0.76
CC1CC(C)CN(S(=O)(=O)c2ccc(-c3nc4ccccc4s3)cc2)C1 (stereo not drawn)	-0.1	-1
O=c1c2cnn(-c3ccccc3)c2cnn1-c1ccccc1	·	-2.4

Other compounds.
SMILES	TAR Tat displ	CDC25B-CDK2 inh
C=CCNC(=O)Nc1ccc2nc(-c3ccccc3)c(-c3ccccc3)nc2c1	·	-0.53
COc1ccc(C(C)=O)cc1CSc1nc2ccc(C(F)(F)F)cc2[nH]1	·	0.16
N#Cc1nc(-c2ccc(COc3ccc(Cl)cc3)o2)oc1N1CCOCC1	-0.22	0.25
O=C(COc1ccc(F)cc1)Nc1nc(-c2cccs2)ns1	0.07	0.15
Cc1ccc(-c2[nH]ncc2CNc2cc(C)cc(C)c2)cc1	3.3	1.1
Cc1cc(S(=O)(=O)[C@H]2CS(=O)(=O)C[C@@H]2N2CCCCC2)ccc1F	2.1	-2
Cc1ccc(S(=O)(=O)Cc2nc(-c3ccc(C(=O)N4CCCC4)cc3)oc2C)cc1	1.1	·
CC(C)c1ccc(OCC(O)CN2CCCCC2C)cc1 (stereo not drawn)	·	-0.5
O=C(c1ccc(Cl)cc1)N1CCS(=NS(=O)(=O)c2ccc(Cl)cc2)CC1	·	-1.8
O=S(=O)(NCc1ccc2c(c1)OCO2)c1ccc2c(c1)OCC2	·	-0.66
CC1=C(c2cccc(Cl)c2)S(=O)(=O)NC1=NC1CCN(Cc2ccccc2)CC1	1.1	0.97
O=C(Cn1ncc2c1-c1ccccc1OC2)N1CCc2ccccc21	·	0.37
Cc1c(C(=O)NCC2CCCO2)oc2ccc(S(=O)(=O)N3CC(C)CC(C)C3)cc12 (stereo not drawn)	·	0.6
COc1ccc(C2C3=C(CC(C)(C)CC3=O)Nc3ncnn32)c(OC)c1 (stereo not drawn)	-0.51	·
O=C(CC1(O)C(=O)Nc2ccccc21)c1ccc(C2CCCCC2)cc1 (stereo not drawn)	0.97	0.18
COc1cc(/C=C/c2[nH]c(=O)[nH]c(=O)c2[N+](=O)[O-])ccc1OCc1ccccc1Cl	-1.5	0.04
CCOC(=O)C1=C(O)C(=O)N(C2CCCCC2)C1	·	-2.3
CC(C)C[C@H](C(=O)O)N1Cc2ccccc2C1=O	0.2	-0.24
Cc1ccc(S(=O)(=O)N/N=C/c2cccs2)cc1	·	-1.1
Cc1ccc(OCC(=O)OC2CCS(=O)(=O)C2)cc1 (stereo not drawn)	1.8	-0.06
O=C1c2cccnc2C(Nc2cccc(Cl)c2)N1Cc1ccco1 (stereo not drawn)	1.8	·
CN(C)c1ccc(N2C(N)=NC(N)=NC2(C)C)cc1	·	-0.54
O=S(=O)(NCc1ccccn1)c1ccc(S(=O)(=O)c2ncc(C(F)(F)F)cc2Cl)s1	·	-2.5
CCOC(=O)CN1C(C(=O)c2ccccc2)=C(OC(=O)c2ccccc2)c2ccccc2S1(=O)=O	1.9	-0.77
CCSCCOC(=O)C1=C(C)NC2=C(C(=O)CC(C)(C)C2)C1c1cccs1 (stereo not drawn)	0.11	-1.2

Next section
SMILES	TAR Tat displ	CDC25B-CDK2 inh
COC(=O)c1sc2nccnc2c1N/C=C(\C#N)C(=O)c1ccc(Cl)cc1	·	-2
O=C(CN1N=NC2C(=O)N(c3ccc(Br)cc3)C(=O)C21)Nc1ccc(F)cc1 (stereo not drawn)	0.05	·
OC1CSCc2nc3ccccc3n2C1 (stereo not drawn)	·	0.14
Cc1c(C(=O)NC2CCCC2)oc2ccc3c(c12)C(=O)CC1(CCCCC1)O3	0.84	0.49
CC(=O)N1c2ccc(S(=O)(=O)N3CCCC3C(=O)Nc3ccccn3)cc2CC1C (stereo not drawn)	1.1	·
COC(=O)CNC(=O)N1CC2CCCN2c2ccccc21 (stereo not drawn)	-0.53	-1.9
COc1nc(N(C)C)nc(-n2cnc(SCc3ccccc3)n2)n1	1.1	-2
Cc1ccc(Sc2ncccc2-c2nnc(C3CC3)o2)cc1	·	-0.51
COc1ccc(Nc2ncnc3[nH]ncc23)cc1	·	1.8
CCn1nc(C)c(CNS(=O)(=O)c2ccc(F)c(Cl)c2)c1C	0.22	·
CCCC(O)c1nc2ccccc2n1CCCOc1ccc(Cl)cc1 (stereo not drawn)	1.1	-1.6
CCOC(=O)NC(NCc1cccnc1)(C(F)(F)F)C(F)(F)F	·	-1.3
CC(=O)N1c2c(cc(Br)cc2S(=O)(=O)NCCN2CCCc3ccccc32)CC1C (stereo not drawn)	-0.24	-1.2

Among those listed so far, 11 have an aryl thioether with sulfur outside any ring.
SMILES	TAR Tat displ	CDC25B-CDK2 inh
COc1ccccc1NC(=O)COc1cc(CSc2ncccn2)ncc1OC	0.51	·
COc1ccc(NC(=O)CSc2nc3c(cnn3-c3ccc(F)cc3)c(=O)[nH]2)c(OC)c1	·	0.32
COc1cccc(-c2nnc(SCc3ccc(C)cc3)o2)c1	0.5	-0.82
c1ccc(CSc2nnc(-c3ccncc3)o2)cc1	·	-2.2
COC(=O)c1c(SCc2ccc(F)cc2)[nH]c2ccccc2c1=O	0.89	·
CSc1nsc(SC)c1NC(=O)OCc1ccccc1	0.79	-0.08
CCOC(=O)CSc1nc(-c2ccccc2)cn1-c1ccccc1	·	-0.85
C=C(C)CSc1nnc2c(n1)[nH]c1ccccc12	1.1	-0.16
COc1ccc(C(C)=O)cc1CSc1nc2ccc(C(F)(F)F)cc2[nH]1	·	0.16
COc1nc(N(C)C)nc(-n2cnc(SCc3ccccc3)n2)n1	1.1	-2
Cc1ccc(Sc2ncccc2-c2nnc(C3CC3)o2)cc1	·	-0.51

Screens from PubChem.
